High-throughput results (PubChem)
VACV Venus inh: vaccinia inhibition (Venus reporter); Vaccinia virus Venus reporter expression, fluorescence; Potency, µM (doses to about 36.5 µM), inactives show top-dose activity change, negative = inhibition, usual class: inhibitors; hit rate 0.46% among 330,000; AID 720580; active means well fitted inhibition curve with a large enough effect; inconclusive means small, poorly fitted or top-dose-only effect; inactive means no such curve, though single readings can be large or run the other way; tested in A549 cells; note: nearly all actives have a fitted effect of over 30% in size; inactives centre near -10
VACV mCherry inh: inhibitors of vaccinia virus infection (mCherry reporter signal). Vaccinia virus mCherry reporter infection, fluorescence; about a quarter of the inactives have no number. Potency, µM (highest dose often 36.5 µM), inactives show at the top dose activity change, negative = inhibition, usual class: inhibitors. hit rate 0.63% among 310,000. AID 720579; active = well fitted inhibition curve with a large enough effect; inconclusive = small, poorly fitted or top-dose-only effect; inactive = no such curve, though single readings can be large or run the other way; tested in A549 cells; note: nearly all actives have a fitted effect of over 35% in size; inactives centre near -10
Numbers without * were called inactive; i = inactive; u = inconclusive; x = no result given; & = joins results of further samples; [ ] = another dose, or the depositor's remark. % is set by controls: 0 for no effect and ±100 for the full control effect; potency is the fitted concentration of half-maximal effect.

SMILES	VACV Venus inh	VACV mCherry inh
Fc1ccc(OCCOCCN2CCNCC2)cc1	-10%	i
CN(C)/C=N/c1ncnc2c1cnn2-c1ccc(C(F)(F)F)cn1	-15%	-16%
COC(=O)Cn1c2ccccc2c(=O)n1C(C)CBr (centres undefined)	-4%	-2%
CC(C)CCn1c(SCC(=O)N2CC(=O)Nc3ccccc32)nc2scc(-c3cccs3)c2c1=O	-7%	-1%
COc1cccc(C(=O)N2c3ccccc3Sc3ccccc32)c1	-2%	-11%
COc1ccccc1N1CCN(C(=O)c2cc3c(=O)n(C)c4ccccc4c3n2C)CC1	-9%	-29%
CC(C)(C)NC(=O)Nc1ccc2nccnc2c1	-7%	i
Cc1onc(-c2ccc(Cl)cc2Cl)c1-c1csc(N/N=C/c2ccccc2)n1	-11%	-14%
CCCCCCCCCCCCCCCC[n+]1ccc(/C=N/O)cc1	10µM*	11µM*
Nc1nnc(SCCN2C(=O)c3ccccc3S2(=O)=O)s1	8%	x
COc1cccc(-c2noc(-c3ccc(Br)o3)n2)c1	-3%	-10%
O=C1CCCN1c1ccc(CNS(=O)(=O)c2ccc(F)cc2)cc1	-3%	x
CC(C)(C)OC(=O)N[C@@H](C(=O)OC(C)(C)C)c1ccc(C(F)(F)F)cc1	-21%	i
O=C(Cn1cc(C(=O)C2CC2)c2ccccc21)NCc1ccc2c(c1)OCO2	-15%	-3%
CCc1cccc(C)c1NC(=O)CSc1nnc(C)o1	-11%	-5%
Cn1cc(-c2cccc(C(F)(F)F)c2)cc(C#N)c1=O	-14%	-15%
COc1cc(O)ccc1C(=O)CCc1ccc(O)cc1	-9%	-9%
O=C1CC(c2ccccc2)Sc2ccccc2N1Cc1ccc(F)cc1 (centres undefined)	15%	2%
COc1ccccc1NC(=O)Nc1cc(C(C)(C)C)nn1C	-6%	-13%
CC(=O)c1cccc(N2C(=NC(=O)COc3ccccc3)SC3CS(=O)(=O)CC32)c1 (centres undefined)	0%[7.34 µM]	2%[7.34 µM]
CCc1nnc(NC(=O)c2ccc(S(=O)(=O)N(CC(C)C)CC(C)C)cc2)o1	u	-14%
CCOC(=O)C1=C(CC)Nc2ccccc2N=C1NC(=O)c1ccc(S(=O)(=O)N2CCCC2)cc1	-10%	-22%
CCn1c(SCC(=O)Nc2nccs2)nnc1-c1ccccn1	-20%	-3%
NC1=NC[C@H](Cc2ccc(O)cc2)N1CCCCC1CCCCC1	u	8.9µM*
O=C(O)c1cc2c(cc1NC(=O)c1c(F)cccc1Cl)OCCCO2	-2%	-24%
CC(NC(=O)/C(C#N)=C1\N=C(NC(=O)c2ccco2)c2ccccc21)c1ccccc1 (centres undefined)	-10%	-13%
NC(=NCCCC(N)C(=O)O)N[N+](=O)[O-] (centres undefined)	-8%	-11%
CCCOc1ccc(N2CC(C(=O)Nc3ccc4c(c3)OCO4)CC2=O)cc1 (centres undefined)	10%	3%
C=CCn1c(CCn2c3ccccc3c3ccccc32)n[nH]c1=S	-7%	i
Cc1nc(P(=O)(c2ccccc2)c2ccccc2)c(N2CCOCC2)o1	-6%	-17%
CC(=O)c1ccc(S(=O)(=O)Nc2ccc(Cl)c(S(=O)(=O)N3CCCC3)c2)cc1	-12%	i
O=C(Cc1ccc(NC2=NC3CS(=O)(=O)CC3S2)cc1)Nc1ccc(F)cc1 (centres undefined)	-6%	i
Cc1ccc(NC(=O)COC(=O)c2cc(C)nc3ccccc23)c([N+](=O)[O-])c1	-14%	i
CC1(C(=O)N/N=C/c2c(F)c(F)c(F)c(F)c2F)CC1(Cl)Cl (centres undefined)	1%	-7%
Nc1nonc1-n1nnc(C(=O)N/N=C\c2cccc(Cl)c2)c1CN1CCOCC1	-8%	u
Cc1cccc(NC(=O)c2nc[nH]c2C(=O)N[C@@H](Cc2ccccc2)C(=O)OC(C)(C)C)c1	u	u
CCNC(=S)N1CCNC(=O)C1CC(=O)OC (centres undefined)	-19%	-10%
Cc1occc1C(=O)NNC(=O)Nc1ccc(Cl)c(Cl)c1	-24%	i
COc1cccc(-n2c(SC)nnc2-c2c[nH]c3ccccc23)c1	u	-18%
COc1ccc(C(O)c2ncc(-c3ccccc3C)[nH]2)cc1F (centres undefined)	-4%	-4%

16 compounds out of the list, ordered by molar mass, ascending:
SMILES	VACV Venus inh	VACV mCherry inh
CCNC(=S)N1CCNC(=O)C1CC(=O)OC (centres undefined)	-19%	-10%
COc1ccc(C(O)c2ncc(-c3ccccc3C)[nH]2)cc1F (centres undefined)	-4%	-4%
Cc1occc1C(=O)NNC(=O)Nc1ccc(Cl)c(Cl)c1	-24%	i
NC1=NC[C@H](Cc2ccc(O)cc2)N1CCCCC1CCCCC1	u	8.9µM*
COc1cccc(-n2c(SC)nnc2-c2c[nH]c3ccccc23)c1	u	-18%
CCn1c(SCC(=O)Nc2nccs2)nnc1-c1ccccn1	-20%	-3%
O=C(O)c1cc2c(cc1NC(=O)c1c(F)cccc1Cl)OCCCO2	-2%	-24%
Cc1ccc(NC(=O)COC(=O)c2cc(C)nc3ccccc23)c([N+](=O)[O-])c1	-14%	i
CCCOc1ccc(N2CC(C(=O)Nc3ccc4c(c3)OCO4)CC2=O)cc1 (centres undefined)	10%	3%
CCc1nnc(NC(=O)c2ccc(S(=O)(=O)N(CC(C)C)CC(C)C)cc2)o1	u	-14%
CC(NC(=O)/C(C#N)=C1\N=C(NC(=O)c2ccco2)c2ccccc21)c1ccccc1 (centres undefined)	-10%	-13%
O=C(Cc1ccc(NC2=NC3CS(=O)(=O)CC3S2)cc1)Nc1ccc(F)cc1 (centres undefined)	-6%	i
Nc1nonc1-n1nnc(C(=O)N/N=C\c2cccc(Cl)c2)c1CN1CCOCC1	-8%	u
CC(=O)c1ccc(S(=O)(=O)Nc2ccc(Cl)c(S(=O)(=O)N3CCCC3)c2)cc1	-12%	i
Cc1cccc(NC(=O)c2nc[nH]c2C(=O)N[C@@H](Cc2ccccc2)C(=O)OC(C)(C)C)c1	u	u
CCOC(=O)C1=C(CC)Nc2ccccc2N=C1NC(=O)c1ccc(S(=O)(=O)N2CCCC2)cc1	-10%	-22%

Next part
SMILES	VACV Venus inh	VACV mCherry inh
COc1ccc(CCN(C)C(=O)c2cncc(Br)c2)cc1OC	-25%	-18%
Cc1ccc(-c2nc3ncccn3c2Nc2ccc3c(c2)OCCO3)cc1	-2%	-4%
CN(C)C(CNC(=O)c1ccc(S(=O)(=O)NCc2ccco2)cc1)c1ccccc1 (centres undefined)	-2%	-11%
Cc1cc(C)cc(NS(=O)(=O)c2ccc3c(c2)OCC(C(=O)N2CCCC2)O3)c1 (centres undefined)	-13%	-5%
Cc1cccc(N2CCN(C(=O)COCc3cc(-c4ccc5c(c4)OCO5)on3)CC2)c1C	-11%&-5%	-9%
O=C(COc1ncnc2ccccc12)NCCC1=CCCCC1	-18%	x
Cc1ccc(NCc2cc3cc4c(cc3n(CC(=O)Nc3ccc(F)cc3F)c2=O)OCCO4)cc1	6%	2%
O=C(NC1CCN(Cc2ccc(Cl)c(Cl)c2)CC1)c1ccccc1	-11%	i
COc1ccc(NC(=O)N(C)C[C@H]2Oc3ccc(NC(=O)CCC(F)(F)F)cc3C(=O)N([C@H](C)CO)C[C@@H]2C)cc1	-5%	i
Cc1nn2c(-c3ccccc3)cc(-c3ccccc3)nc2c1-c1ccc(Cl)cc1	-6%	-23%
C[C@@H](NC(=O)[C@@H]1CCCN1C(=O)[C@@H]1CCCN1C(=O)c1cccc2ccccc12)c1ccccc1	-10%	i
CCc1ccc(-c2nc(SCC(=O)N3CCOCC3)n[nH]2)cc1	-15%	-6%
CC/C(=N\NC(=O)c1c(C)nc2ccccn12)c1ccc(Cl)cc1	-19%	-2%
COc1ccc(Cn2cc(C(=O)c3ccc(OC)cc3)c(=O)c3cc4c(cc32)OCCO4)cc1	-6%	-9%
C=CCCC(=O)Nc1ccc(Br)cn1	-28%	-6%
COc1ccc(NS(=O)(=O)c2cc(NC(=O)Cc3n[nH]c(=O)c4ccccc34)ccc2OC)cc1	-15%	-14%
Cc1occc1C(=O)N1CCCC(N2CCN(c3ccccc3F)CC2)C1 (centres undefined)	-8%	i
Cc1ccc(NC(=O)C2CC(O)CN2C(=O)Oc2ccccc2)c(C)c1 (centres undefined)	-5%	-6%
Cc1ccc(CN2CCCn3nc(C(=O)NCCc4cccc(C)c4)cc3C2=O)cc1	-16%	-9%
CN1CCN(C(=O)Nc2cccc(-c3ccccc3)c2)CC1	-19%	i
O=C(CNC(=O)c1ccc(-c2ccccc2)cc1)OCc1ccc(Br)cc1	0%	i
COc1ccc(Cn2c(SCc3ccc(C(=O)NCc4ccccc4F)cc3)nc3cccnc32)cc1	-19%	-17%
CC(Cc1ccccc1)N1C(=O)c2cccc([N+](=O)[O-])c2C1=O (centres undefined)	-11%	-16%
CC(NC(=O)Cn1nc(C(=O)O)c2ccccc2c1=O)C12CC3CC(CC(C3)C1)C2 (centres undefined)	-18%	i
Cc1nc(Nc2c(Cl)cccc2Cl)sc1C(=O)Nc1ccccc1	-1%	i
CCCc1nnc(SCC(=O)Nc2ccc(Cl)cc2Cl)o1	-15%	-2%
Cc1ccc(OCCSc2ncccn2)c(C)c1	-16%	i
CCOCCC(=O)Nc1ccc2c(c1)c(=O)n(C)n2Cc1cccc(C(F)(F)F)c1	-8%	-30%
Cc1sc2nc(CN3CCOCC3)nc(N3CCOCC3)c2c1C	-12%	x
CC(C)Cn1cnc2c(=O)oc3ccccc3c21	-7%	x
COc1cc2c(cc1NC(=O)C(C)NCc1ccccc1)oc1ccccc12 (centres undefined)	-24%	-16%
CC(C)(CO)CNC(=O)CCc1nnc(C2(c3ccc(Cl)cc3)CCC2)o1	-6%	i
O=C(CSc1ccccc1)N1CCN(S(=O)(=O)c2cccs2)CC1	-23%	-7%
CCCCOc1c(Cl)cc(C(=O)N(Cc2ccc(C)o2)C2CCS(=O)(=O)C2)cc1Cl (centres undefined)	-10%	-8%
Cn1c(Cc2ccccc2)nnc1SCc1cc(=O)n2ccsc2n1	-2%	-4%
Cc1ccc(S(=O)(=O)N2CCN(C(=O)C3=COCCO3)CC2)cc1C	u	x
CCn1cc(S(=O)(=O)N2CCN(c3ccc(Cl)cc3)CC2)cn1	-13%	-28%
Cc1cc(=O)[nH]c(SCC(=O)NCC2CCCCC2)c1C#N	-11%	i
Cc1nc2cc(NC(=O)N3c4ccccc4CC3C)ccc2o1 (centres undefined)	-10%	-15%
Cc1ccc(OCc2cc(C(=O)NCC3COCCO3)no2)cc1C (centres undefined)	-24%	-8%
COc1ccc2nc3cc(Cl)ccc3c(Nc3ccc(O)c(CN4CCN(C)CC4)c3)c2c1	u	u
CC1=NOC(=O)/C1=C\c1ccc(-c2ccc(Cl)c(C(=O)O)c2)o1	6%	-10%
COn1c(SC2CCCCC2)nc2ccccc2c1=O	-9%	-14%
COc1ccc(C)cc1NC(=O)N1CCN(S(=O)(=O)c2ccc3c(ccn3C)c2)CC1	0%	-13%
COCCn1c(SCC(=O)NCc2ccccc2)nc2ccccc21	-5%	-2%
CCOc1ccc(CCNC(=O)COC(=O)/C=C/c2ccc(OC(F)F)c(OC)c2)cc1OCC	11%	-10%
O=C(C1=C(O)C(=O)N(c2ccccc2)C1c1ccc([N+](=O)[O-])cc1)c1cccs1 (centres undefined)	9%	4%
COc1cccc(OCC(=O)N(C)Cc2nc(-c3ccccc3)no2)c1	-12%	-14%
O=[N+]([O-])c1cc(S(=O)(=O)NCCN2CCOCC2)ccc1Sc1nnnn1-c1ccccc1	u	u
Cc1[nH]nc2c1C1(CCC(c3ccccc3)CC1)C(C#N)=C(N)O2 (centres undefined)	-9%	i
CCCC(=O)N1CCC1(C)C(=O)Nc1cc(OC)ccc1OC (centres undefined)	-1%	6%
C=CCNC(=O)c1ccccc1NC(=O)c1ccccc1	-8%	-18%
COCCNC(=O)c1cccc2c(-c3ccnn3C)coc12	1%	18%
CCCCc1c(-c2cccc(F)c2)ncn1CCc1ccccc1OC	u	-4%
CS(=O)(=O)Cc1cc(Sc2ccccc2)nc(-c2ccncc2)n1	3%	1%
CCN(Cc1ccccc1)C(=O)Cn1c(=O)oc2cc(S(=O)(=O)N3CCCCCC3)ccc21	-18%	-6%
O=C1NC(Cc2ccc(O)cc2)c2nc3cc(F)ccc3c(=O)n2-c2ncccc21 (centres undefined)	-16%	i
Cc1ccc(S(=O)(=O)N(C)c2cc(S(N)(=O)=O)c(C)cc2C)cc1	-1%	-26%
C(=N\N(c1ccccc1)c1ccccc1)/c1ccc(N2CCOCC2)s1	-16%	-23%
CC1CCc2cc(F)cc3c(=O)c(C(=O)O)cn1c23 (centres undefined)	-7%&-7%	-9%
Following part
SMILES	VACV Venus inh	VACV mCherry inh
CCOC(=O)C1=C(C)N=c2sc(=Cc3cc(Cl)c(OCC(=O)O)c(OC)c3)c(=O)n2C1c1ccccc1Cl (centres undefined)	30%	i
C[C@@]12N[C@@H](Cc3ccccc31)c1ccccc12	-11%&-15%	-19%
CSc1n[nH]c(NC(C)=O)n1	-6%	x
CCOC(=O)C1=CN(Cc2ccccc2)CCC1=O	-6%	-14%
COc1cc(CC(=O)OCc2ccccc2F)cc(OC)c1OC	-5%	-3%
COc1cc(OC)c(OC)cc1CNc1cc(C)ccc1OC	u	-23%
Cc1noc(C)c1C(=O)OCC(=O)/C=C1/N(C)c2ccccc2C1(C)C	-11%	-17%
O=C(CSc1nnc(-c2cccs2)o1)c1cccs1	u	u
Cn1cc(S(=O)(=O)N2CCc3ccccc32)cc1C(=O)NC1CCCCC1	-3%	i
